AmpC nodet inh = blocks E. coli AmpC beta-lactamase in absence of detergent. P00811. Potency, µM (doses to about 28.7 µM), for the others: at the top dose activity change, negative = inhibition. actives 1.8% (n = 71,000). AmpC nitrocefin hydrolysis, absorbance 480 nm, no detergent; potencies from a single point are estimates; active = falling curve, for most hits resting on a single point; inconclusive = weak or doubtful change; inactive = flat or rising curve; note: % of control where 0% means no effect; about half of the hits show no inhibition at the top dose; a quarter of the inactives give rising signals
Target sequence (P00811 whole entry, looked up): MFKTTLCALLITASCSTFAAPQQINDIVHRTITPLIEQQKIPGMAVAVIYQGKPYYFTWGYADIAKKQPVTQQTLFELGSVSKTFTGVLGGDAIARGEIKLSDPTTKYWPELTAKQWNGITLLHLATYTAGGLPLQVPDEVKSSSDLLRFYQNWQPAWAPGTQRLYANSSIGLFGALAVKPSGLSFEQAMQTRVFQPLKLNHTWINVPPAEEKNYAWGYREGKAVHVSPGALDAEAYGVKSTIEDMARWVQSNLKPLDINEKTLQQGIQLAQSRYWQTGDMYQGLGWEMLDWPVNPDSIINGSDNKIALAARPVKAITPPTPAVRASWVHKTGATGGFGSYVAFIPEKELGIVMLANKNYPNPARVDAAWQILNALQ
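Enzyme, pH 7.0 phosphate. Compound titrations were pre-incubated with AmpC for 15 min at room temperature before nitrocefin (stock 800 uM) addition; product formation was recorded at 480 nm every 20 s for 4 min.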
* hit, by the source's call; ? = inconclusive; ! = a repeat was not active; [ ] = dose if it differs, or a comment. Potency is the fitted concentration of half-maximal effect. Some of the compounds tested, so the mix of outcomes need not match the whole.

SMILES	AmpC nodet inh
COc1ccc(C2C3=C(OC(C)=O)c4ccccc4C3=Nc3c2c(=O)n(C)c(=O)n3C)cc1 (stereo not drawn)	22%
CC1CC(C)CN(S(=O)(=O)c2ccc(NC(=O)C3COc4ccccc4O3)cc2)C1 (stereo not drawn)	16µM*[single pt active]
Cc1c(C2CCN(CCc3ccccc3)CC2)noc1-c1ccc(Cl)cc1	-8%
CC(C)c1ccccc1OCCNS(C)(=O)=O	16%
O=C(OCCN1C(=O)c2ccccc2C1=O)C1CCN(S(=O)(=O)c2cccs2)CC1	32%
COc1cc(C2Nc3cccc4cccc(c34)N2)ccc1OC(C)=O	19%
CCn1c(SCC(=O)NC)nnc1C(C)C	-10%
N#Cc1nc(Cc2ccccc2)oc1NCc1ccccc1Cl	1%
CCOc1cc(C2C(C#N)=C(N)Oc3n[nH]c(C)c32)ccc1OCCN1CCOCC1 (stereo not drawn)	36%
COc1cccc(Cn2c(=O)c(-c3ccc(F)cc3)nc3cncnc32)c1	7%
CCOC(=O)C(C(=O)N1CCOCC1)C1CCCCC1 (stereo not drawn)	4%
CCN(Cc1ccccc1)C(=O)Cn1c(=O)n(CC(=O)NCc2ccco2)c(=O)c2sccc21	-13%
C=CCN1C(=O)C2(C(C#N)=C(N)Oc3n[nH]c(CCC)c32)c2ccccc21 (stereo not drawn)	0%
O=S(=O)(Nc1cccc(-c2nc3cccnc3s2)c1)c1ccc2c(c1)OCCO2	7%
COc1cc2nc(C)sc2cc1SC	9%
O=C(COc1ccc2ccccc2c1Br)Nc1ncn[nH]1	-11%
O=C(Nc1ccc(Cl)cn1)c1ccc(COCC(F)(F)C(F)F)o1	0%
CO/N=C(/C(=O)N[C@@H]1C(=O)N2C(C(=O)O)=C(COC(N)=O)CS[C@H]12)c1ccco1	0.01µM*
CCNC(=O)c1ccc2c(c1)S(=O)(=O)c1ccccc1C2=O	-2%
CC(C)c1ccc(O)c(CN2CCN(c3ccccc3)CC2)c1	7%
O=c1sc2ccccc2n1COc1ccccc1	-9%
O=C(CCN1CCN(c2ccccn2)CC1)Nc1ccc(F)cc1	8%
Cc1ccc2c(c1)CC1(CN2C)C(=O)NC(=O)N(c2cc(C)ccc2C)C1=O (stereo not drawn)	0%
CCOC(=O)Nc1ccc2c(c1)N(C(=O)CCN(C)C)c1ccccc1S2	41%
Cc1nn(-c2cc(C)c3ccccc3n2)c2c1CCC2	61%
O=C(NCc1ccc(Cl)cc1)C1C2C=CC3(CN(Cc4cccnc4)C(=O)C13)O2 (stereo not drawn)	-9%
O=P(O)(CCc1ccccn1)CN1CCCCC1	-1%
O=C(CN(C(=O)CSc1nnc(COc2ccccc2)o1)c1ccc(F)cc1)NC1CCCCC1	60%
Cc1cc(C(=O)COc2ccc3ccc(=O)oc3c2)c(C)n1Cc1cccs1	-20%
CN(C)C(=O)c1ccc(-c2nccc(NCc3ccccc3)n2)cc1	38%
COc1ccc(NC(=O)NCCCN2CCN(c3cc(C)ccc3C)CC2)cc1	4µM*[single pt active]
Cc1ccc(S(=O)(=O)NC(=O)c2cc(C)n(CCCn3ccnc3)c2C)cc1	15%
COc1cccc(-c2nn(-c3ccccc3)cc2C(=O)Nc2nccs2)c1	-8%
O=C(Nc1ccc(S(=O)(=O)N2CCCC2)cc1)C1COc2ccccc2O1 (stereo not drawn)	-23%
COC(=O)CCP(=O)(O)Cc1ccccc1CP(=O)(O)CCC(=O)OC	1%
NC(=O)c1ccsc1NC(=O)COC(=O)c1ccccc1NCc1ccco1	5µM*
COc1cccc(Nc2ncc3nc(C)c(=O)n(C)c3n2)c1	20%
CCC(C(=O)N1CC2(C)CC1CC(C)(C)C2)N1C(=O)c2ccccc2C1=O (stereo not drawn)	101%
COC(=O)c1cccc(NS(=O)(=O)c2cccs2)c1C	-5%
CCn1c(SCC(=O)Nc2cccc(F)c2)nnc1-c1cc2cc(Br)ccc2o1	-9%

Part of the list above in order of length of the SMILES, descending:
SMILES	AmpC nodet inh
O=C(NCc1ccc(Cl)cc1)C1C2C=CC3(CN(Cc4cccnc4)C(=O)C13)O2 (stereo not drawn)	-9%
CCC(C(=O)N1CC2(C)CC1CC(C)(C)C2)N1C(=O)c2ccccc2C1=O (stereo not drawn)	101%
O=C(Nc1ccc(S(=O)(=O)N2CCCC2)cc1)C1COc2ccccc2O1 (stereo not drawn)	-23%
O=P(O)(CCc1ccccn1)CN1CCCCC1	-1%
O=c1sc2ccccc2n1COc1ccccc1	-9%

The results go on.
SMILES	AmpC nodet inh
CC(C)(C)n1ncc2c(=O)n(CC(=O)N3CCN(c4ccccc4)CC3)cnc21	45%
Cc1cnc(NC(=O)c2c(O)c3cccc4c3n(c2=O)CCC4)s1	24%
CC(C)NS(=O)(=O)c1ccc2c(c1)oc(=O)n2C	8%
Cc1cc(C(=O)N2CCN(c3ncccn3)CC2)c(C)o1	4%
Cc1ccc(NC(=O)N2CCCN(Cc3ccc(F)cc3)C2)cc1C	19%
COc1ccccc1C(=O)Nc1c2c(nn1-c1cccc(C)c1C)CS(=O)(=O)C2	26%
CC(C)n1c(=S)[nH]c2c1c(=O)[nH]c(=O)n2C	1%
Cc1cc(C)cc(N(CC(=O)N2CCn3c2nc2ccccc23)S(=O)(=O)c2c(C)noc2C)c1	4µM*[single pt active]
NC(=O)c1cc[n+](CC2=C(C(=O)O)N3C(=O)[C@@H](NC(=O)[C@H](c4ccccc4)S(=O)(=O)[O-])[C@@H]3SC2)cc1	-1%[12.8 µM]
COCCNC(=O)CN(c1cc(C(F)(F)F)ccc1Cl)S(C)(=O)=O	12%
Cn1c2c(c(=O)n(C)c1=O)CN(CC1CCCO1)CN2 (stereo not drawn)	6%
CC(=O)c1c(C)[nH]c(C(=O)NCc2cccs2)c1C	-8%
O=C(NC1CCCC1)C(NS(=O)(=O)c1cccc2nsnc12)c1ccccc1 (stereo not drawn)	-15%
COc1cc(C(=O)OCC(=O)Nc2c(F)c(F)c(F)c(F)c2F)cc(OC)c1OC	17%
Cc1cc(Cl)c(S(N)(=O)=O)cc1OCC(N)=O	9%
Cc1onc(-c2c(F)cccc2Cl)c1C(=O)NCCc1ccc(S(N)(=O)=O)cc1	-9%
O=C(c1ccccc1)N1CCN(C(=O)C23CC4CC(CC(C4)C2)C3)CC1	69%
COc1ccc(N2Cc3cccc(C(=O)N4CCOCC4)c3C2=O)cc1	6%
Cc1c(Br)c(C(F)(F)F)nn1CC(=O)NCCN1CCOCC1	-2%
Cc1noc(C)c1S(=O)(=O)N1CCC(C(=O)NCCC2=CCCCC2)CC1	23%
O=C(Nc1cccc(F)c1)N1CCC2(CC1)CCN(C(=O)c1cnccn1)CC2	1%
CCCSc1nc2c(c(=O)[nH]c(=O)n2C)n1C	11%
c1coc(Cn2nnnc2CN2CCN(C3CCCCC3)CC2)c1	-7%
CCCCN(CC)S(=O)(=O)c1ccc(C(=O)Nc2nnc(-c3ccccc3Cl)o2)cc1	6.3µM*
CCc1nnc(SCC(=O)N2CCCc3ccccc32)nc1CC	19%
COc1ccccc1-c1cncnc1N1CCN(C)CC1	-6%
Cc1[nH]nc2c1C(Cc1ccccc1)C(C#N)=C(N)O2 (stereo not drawn)	-19%
CCOc1ccc(CN2CCC(=O)NC2=O)cc1	-2%
CCOc1cc(NC(=O)C2CC2)c(OCC)cc1NC(=O)c1ccccn1	92%
COC(=O)c1c(C)[nH]c(C)c1-c1ccccc1	-4%
Cc1c(C(=O)NC(C)CN2CCCCC2)oc2ccccc12 (stereo not drawn)	6%
CCOc1ccc2[nH]c(C)cc(=O)c2c1	4µM*[single pt active]
COc1ccc(-c2nnc(SCC(=O)c3[nH]c(C)c(C(C)=O)c3C)o2)cc1	92%
COc1ccc(OC)c(NC(=O)C2CCC(CNc3c(N4CCC(C)CC4)c(=O)c3=O)CC2)c1 (stereo not drawn)	73%
Cn1c(=O)c2c(nc(SC3C(=O)CC(C)(C)CC3=O)n2C)n(C)c1=O	-1%
CCCCOCCCNC(=O)N[C@H](C(=O)OC)C(C)C	-8%
COCCn1nnnc1C(c1ccc(OC)cc1OC)N1CCN(c2ccccc2F)CC1 (stereo not drawn)	115%
O=C(CN(CCc1ccccc1)C(=O)CNS(=O)(=O)c1ccccc1)NCc1ccco1	20%
O=C(O)c1ccccc1Nc1cccc(OCc2ccc3ccccc3n2)c1	16µM*![single pt active]
CCOC(=O)N1CCC(NC(=O)CC(NS(=O)(=O)c2ccc(Cl)cc2)c2ccco2)CC1 (stereo not drawn)	67%
COC(=O)c1cc(NC(=O)C2COc3ccccc3O2)ccc1Cl (stereo not drawn)	-1%
CCOc1ccc(N2C(=O)c3ccc(C(=O)OCc4c(C)noc4C)cc3C2=O)cc1	25%
Cc1ccc(N2CC(C(=O)Nc3nnc(C(C)C)s3)CC2=O)cc1 (stereo not drawn)	40%
O=C(CSc1nnc(CNc2ccc(F)cc2)n1Cc1ccccc1)N1CCOCC1	103%
COc1ccc(N(C(=O)C2CCCCC2)C2C=CS(=O)(=O)C2)c(OC)c1 (stereo not drawn)	34%
COc1cc2c3c(c1)/C(=C1/SC(NC(C)=O)=NC1=O)C(=O)N3C(C)(C)C=C2C	119%
CC(Sc1nc2ccccc2o1)C(=O)O (stereo not drawn)	-8%
CCOCC(=O)Nc1ccccc1C(=O)OCC	15%
N#CCn1nnc(-c2ccc3c(c2)OCO3)n1	-10%
CCOc1cc(C=O)ccc1O	-8%
C[C@@]12CC[C@H](O)C[C@@H]1CC[C@@H]1[C@@H]2CC[C@@]2(C)[C@@H](C3=CC(=O)OC3)[C@H](O)C[C@]12O	2%[5.75 µM]
COc1ccc(C(=O)NC(=O)CSc2nnc(-c3ccco3)n2-c2ccccc2)cc1	16%
COC(=O)C1=C(C)Nc2nnnn2C1c1ccco1 (stereo not drawn)	2%
COc1ccc(-n2c(=O)c(-c3cccs3)nc3cncnc32)cc1	-1%
CCCc1nc2c(nnn2Cc2ccccc2)c(=O)[nH]1	-11%
COc1cccc(C(=O)Nc2ccc(NC(=O)C(C)(C)C)cn2)c1	-6%
CCOC(=O)c1[nH]c(C)c(C)c1C	15%
CCN(CCCNC(=O)Cn1ncc2c(=O)oc3ccccc3c21)c1cccc(C)c1	2µM*[single pt active]
COc1cccc(C(=O)Nc2ccccc2N2CCOCC2)c1	12%
Cc1ccc(-n2ncc3c(=O)n(CC(=O)NCc4ccco4)cnc32)cc1C	-5%

4 of these compounds in a different format:
C[C@@]12CC[C@H](O)C[C@@H]1CC[C@@H]1[C@@H]2CC[C@@]2(C)[C@@H](C3=CC(=O)OC3)[C@H](O)C[C@]12O
- AmpC nodet inh: 2%[5.75 µM]

CCOC(=O)c1[nH]c(C)c(C)c1C
- AmpC nodet inh: 15%

CCN(CCCNC(=O)Cn1ncc2c(=O)oc3ccccc3c21)c1cccc(C)c1
- AmpC nodet inh: 2µM*[single pt active]

O=C(CSc1nnc(CNc2ccc(F)cc2)n1Cc1ccccc1)N1CCOCC1
- AmpC nodet inh: 103%

The main list resumes; the 4 compounds before the break are reprinted first.
SMILES	AmpC nodet inh
CCOC(=O)c1[nH]c(C)c(C)c1C	15%
CCN(CCCNC(=O)Cn1ncc2c(=O)oc3ccccc3c21)c1cccc(C)c1	2µM*[single pt active]
COc1cccc(C(=O)Nc2ccccc2N2CCOCC2)c1	12%
Cc1ccc(-n2ncc3c(=O)n(CC(=O)NCc4ccco4)cnc32)cc1C	-5%
COc1cc2c(cc1NC(=O)CSc1nnnn1-c1ccccc1)oc1ccccc12	?
CCn1c(O)c(C2=NCCCC2)c2ccccc21	86%
COc1ccc(OC)c(-c2cc(C(=O)Nc3cccc(Cl)c3)no2)c1	-10%
COc1ccccc1NC(=O)N(Cc1cc2cc(OC)c(OC)cc2[nH]c1=O)CC1CCCO1 (stereo not drawn)	130%
CCOC(=O)C1SC2(C(F)(F)F)CC1(O)c1c(C)cc(C)nc1O2 (stereo not drawn)	22%
CCCC(C(=O)NC1CCCC1)N(C(=O)Cn1nnc(-c2ccc(C)o2)n1)c1ccccc1OC (stereo not drawn)	70%
Clc1ccccc1-c1nnc2sc(-c3ccncc3)nn12	1%
O=C(Cn1c(=O)n(-c2ccccc2)c(=O)c2sccc21)N1CCCC1	-7%
CN1C(=O)c2ccc(N3CCCC3)cc2C1=O	7%
Cn1c(=O)c(-c2cccc(Cl)c2)nc2cncnc21	21%
Cn1c(=O)c2cc(S(=O)(=O)NCCC(=O)NC3CCCCCCC3)ccc2n(C)c1=O	40%
CC[C@@H](C)[C@H](NC(=O)C1CCN(C(=O)[C@@H](NS(=O)(=O)c2ccc(C)cc2)C(C)C)CC1)C(=O)O	3%
CN(C)Cc1ccccc1-c1ccc2ncnc(NC3CCNCC3)c2c1	15%
O=c1[nH]c(CSc2nc3ccccc3o2)nc2c1cnn2-c1ccccc1	27%
Cc1ccccc1-n1nc(C)c2cc(C(=O)NCc3cccnc3)sc21	-7%
c1ccc(-c2csc(Nc3cccnc3)n2)nc1	-7%
COC(=O)N1CCN(S(=O)(=O)c2ccc(F)cc2)CC1	13%
Cc1cc(N2CCOCC2)nc2ccc(Cc3ccc4nc(N5CCOCC5)cc(C)c4c3)cc12	53%[5.75 µM]
CCOc1ccc(N2C(=O)CC(NCc3ccc(F)cc3)C2=O)cc1 (stereo not drawn)	22%
O=C(Nc1ccccc1Cl)N1CCN(c2ccccn2)CC1	4%
COCCNC(=O)CSc1nc2ccccc2c2nc(C)nn12	6%
Cc1c(C(=O)NCc2cccnc2)sc2nc(-c3ccc(F)cc3)cn12	120%
